NOMO-1 viab: NOMO-1 AML cell viability reduction, primary screen, STK33 inhibitor project, CellTiter-Glo luminescence; AID 2330, 2010; inhibition, % (no concentration beside the values); NOMO-1 AML viability, 72 h; 37,000 compounds, 7.5% hits;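 active = most replicates above 80%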;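 also: wells of about 30 µL received 25 nL stock; 0% = median of vehicle wells and 100% = reference inhibitor level; the first replicate is given; inactives centre near 10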
The depositor's hits bear a star. An excerpt; the hit share may differ from the screen's.

Structure	NOMO-1 viab
CNC[C@@H]1OCCCC[C@@H](C)Oc2ccc(NC(=O)NC(C)C)cc2C(=O)N([C@H](C)CO)C[C@@H]1C	0
CCC(C)S(=O)(=O)c1oc(-c2ccc(C)cc2)nc1S(=O)(=O)c1ccccc1 (stereo unspecified)	116*
C[C@H]1CN([C@@H](C)CO)C(=O)c2cc(NC(=O)Cc3cn(C)c4ccccc34)ccc2O[C@H]1CN(C)S(=O)(=O)c1cccs1	14
CCOc1ccccc1CNc1nc2nc3c(c(=O)n2[nH]1)CCC3	27
CC(C)NC(=O)Nc1ccc2c(c1)CC(=O)N([C@@H](C)CO)C[C@@H](C)[C@@H](CN(C)C(=O)Nc1cccc3ccccc13)O2	1
O=C(CCc1nc(-c2ccccc2)no1)Nc1ccccc1Cl	2
C[C@@H]1CN([C@@H](C)CO)C(=O)Cc2cc(NS(=O)(=O)c3ccc(Cl)cc3)ccc2O[C@@H]1CN(C)S(=O)(=O)c1cccs1	11
COc1cc(C(=O)NCC(=O)O)cc(OC)c1OC	-7
CC(C)NC(=O)Nc1ccc2c(c1)C(=O)N([C@H](C)CO)C[C@H](C)[C@H](CN(C)CC1CCCCC1)OCCCC[C@@H](C)O2	6
O=C(Oc1cc(=O)oc2c1c(=O)n1c3c(cccc23)CC1)c1ccccc1	140*
Cc1ccc(S(=O)(=O)Nc2ccc3c(c2)C(=O)N([C@H](C)CO)C[C@@H](C)[C@H](CN(C)Cc2ccccc2)O3)cc1	22
COc1ccc(-c2coc3cc(O)ccc3c2=O)cc1O	11
C[C@H]1CN([C@@H](C)CO)C(=O)c2cccc(NC(=O)Nc3ccc4c(c3)OCO4)c2O[C@H]1CN(C)Cc1ccc2c(c1)OCO2	28
Cc1nnc(SCc2cccc(C(=O)c3ccccc3)c2)[nH]c1=O	16
Cc1noc(C)c1S(=O)(=O)Nc1ccc2c(c1)C(=O)N([C@@H](C)CO)C[C@@H](C)[C@H](CN(C)C(=O)Nc1ccccc1)O2	43
CC(=O)NC(Cc1c[nH]c2cc(Cl)ccc12)C(=O)O (stereo unspecified)	4
Cc1noc(C)c1S(=O)(=O)Nc1ccc2c(c1)CC(=O)N([C@@H](C)CO)C[C@H](C)[C@H](CN(C)Cc1ccc(-c3ccccc3)cc1)O2	14
COc1ccc(S(=O)(=O)N(C)C[C@H]2Oc3ccc(NC(=O)CCN4CCOCC4)cc3C(=O)N([C@@H](C)CO)C[C@@H]2C)cc1	-23
C[C@H](CO)N1C[C@H](C)[C@@H](CN(C)S(=O)(=O)c2ccc(F)cc2)Oc2ccc(NC(=O)Nc3ccccc3)cc2C1=O	8
Cc1ccc(S(=O)(=O)N(C)C[C@H]2OCCCC[C@@H](C)Oc3ccc(NS(C)(=O)=O)cc3C(=O)N([C@H](C)CO)C[C@@H]2C)cc1	21
C[C@@H]1CN([C@H](C)CO)C(=O)Cc2cc(NC(=O)C3CC3)ccc2O[C@@H]1CN(C)Cc1ccc2c(c1)OCO2	43
COc1ccc(S(=O)(=O)Nc2ccc3c(c2)C(=O)N([C@@H](C)CO)C[C@@H](C)[C@@H](CN(C)C(=O)Nc2ccc(F)cc2)O3)cc1	13
C[C@@H]1CN([C@H](C)CO)C(=O)c2cccc(NC(=O)Nc3ccc(F)cc3)c2O[C@@H]1CN(C)Cc1ccc(Oc2ccccc2)cc1	47
Cc1c(C#N)c(Sc2n[nH]c(=O)n2C2CCCCC2)nc2ccccc12	29
C[C@H]1CN([C@@H](C)CO)C(=O)c2cccc(NC(=O)NC3CCCCC3)c2O[C@@H]1CN(C)C(=O)Nc1ccc(F)cc1	5
c1ccc2[nH]c(CSc3nc4ccccc4[nH]3)nc2c1	6
CN(CC(O)Cn1c2ccccc2c2ccccc21)S(C)(=O)=O (stereo unspecified)	-19
C[C@@H]1CCCCO[C@@H](CN(C)C(=O)Nc2ccc(C(F)(F)F)cc2)[C@@H](C)CN([C@H](C)CO)C(=O)c2cc(NC(=O)CCC(F)(F)F)ccc2O1	47
COc1cc(C2OC(c3ccc(O)c(OC)c3)C(C)(O)C2C)ccc1O (stereo unspecified)	119*
Cc1noc(C)c1S(=O)(=O)Nc1ccc2c(c1)C(=O)N([C@H](C)CO)C[C@@H](C)[C@@H](CN(C)S(=O)(=O)c1c(C)noc1C)O2	23
C[C@@H]1CN([C@H](C)CO)C(=O)Cc2cc(NC(=O)Cc3cn(C)c4ccccc34)ccc2O[C@H]1CN(C)S(=O)(=O)c1ccc(Cl)cc1	-2
C[C@H]1CN([C@@H](C)CO)C(=O)Cc2cc(NC(=O)Nc3ccc4c(c3)OCO4)ccc2O[C@@H]1CN(C)C(=O)Nc1ccccc1	-7
Cc1ccc(S(=O)(=O)Nc2ccc3c(c2)C(=O)N([C@H](C)CO)C[C@H](C)[C@H](CN(C)S(=O)(=O)c2ccc(C)cc2)OCCCC[C@@H](C)O3)cc1	95*
Cc1noc(C)c1S(=O)(=O)Nc1ccc2c(c1)C(=O)N([C@H](C)CO)C[C@H](C)[C@@H](CN(C)S(=O)(=O)c1ccc(F)cc1)OCCCC[C@@H](C)O2	29
Cn1c(=O)c2c(ncn2Cc2cc(-c3ccccc3)no2)n(C)c1=O	-3
COc1ccc(CN(C)C[C@@H]2OCCCC[C@@H](C)Oc3ccc(NS(=O)(=O)c4cn(C)cn4)cc3C(=O)N([C@H](C)CO)C[C@@H]2C)cc1	-5
Cc1ccc(S(=O)(=O)Nc2ccc3c(c2)C(=O)N([C@@H](C)CO)C[C@@H](C)[C@H](CN(C)S(C)(=O)=O)O3)cc1	6
CC(C)NC(=O)N(C)C[C@@H]1Oc2ccc(NC(=O)Cc3cn(C)c4ccccc34)cc2CC(=O)N([C@@H](C)CO)C[C@@H]1C	12
O=C(c1ccc([N+](=O)[O-])cc1)N(Cc1cc2ccccc2[nH]c1=O)c1ccccc1	35
C[C@@H]1CN([C@H](C)CO)C(=O)Cc2cc(NC(=O)CCN3CCOCC3)ccc2O[C@H]1CN(C)S(=O)(=O)c1ccc(F)cc1	19
COc1c(-c2ccccc2)oc2c(CC=C(C)C)c3c(c(OC)c2c1=O)C=CC(C)(C)O3	28
CC(C)NC(=O)N(C)C[C@H]1Oc2ccc(NC(=O)Cc3ccccc3)cc2C(=O)N([C@@H](C)CO)C[C@H]1C	-4
C[C@@H]1CN([C@@H](C)CO)C(=O)c2cccc(NC(=O)NC3CCCCC3)c2O[C@@H]1CN(C)Cc1ccccc1	12
CC(=O)Nc1ccc(OCC(O)CNC2CCCC2)cc1 (stereo unspecified)	-7
O=C(Nn1cnc2ccccc2c1=O)c1ccccc1	5
NC(=O)OCC(O)COc1ccc(Cl)cc1 (stereo unspecified)	20
C[C@@H]1CCCCO[C@@H](CN(C)S(=O)(=O)c2ccccc2)[C@@H](C)CN([C@H](C)CO)C(=O)c2cc(NS(=O)(=O)c3cccs3)ccc2O1	25
COc1ccc(-c2n[nH]c(=S)n2-c2ccccc2C)cc1OC	-1
COc1ccc(CN(C)C[C@@H]2Oc3ccc(NC(=O)C4CCCCC4)cc3CC(=O)N([C@H](C)CO)C[C@H]2C)cc1	3
CC(C)(C)c1cc(CN2CCN(CCC#N)CC2)cc(C(C)(C)C)c1O	29
Cc1cc(C)c(NC(=O)C(C)N(c2ccc(Oc3ccccc3)cc2)S(C)(=O)=O)c(C)c1 (stereo unspecified)	15
Cc1ccc(S(=O)(=O)NCC(=O)Nc2ccc(C)c(Cl)c2)cc1	23
Cc1ccc(S(=O)(=O)c2nc(-c3ccccc3Cl)oc2NCC2CCCO2)cc1 (stereo unspecified)	44
COc1ccc2c(c1)c(=O)oc1c(C)c(OC(C(=O)O)c3ccccc3)ccc12 (stereo unspecified)	-11
CC(C)c1cc2c(cc1O)[C@@]1(C(=O)O)CCCC(C)(C)C1CC2 (stereo partly specified)	-2
COc1ccc(NC(=O)N(C)C[C@@H]2Oc3ccc(NS(=O)(=O)c4ccc(C)cc4)cc3C(=O)N([C@@H](C)CO)C[C@@H]2C)cc1	7
COc1ccc(CN(C)C[C@@H]2Oc3c(NC(=O)c4ccncc4)cccc3C(=O)N([C@@H](C)CO)C[C@H]2C)cc1	-10
C[C@@H]1CN([C@H](C)CO)C(=O)c2cc(NC(=O)CCC(F)(F)F)ccc2O[C@H]1CN(C)Cc1ccccc1	2
O=C(CSc1nccc(=O)[nH]1)Nc1ccc([N+](=O)[O-])cc1	12
Cc1cc(I)ccc1NC(=O)CN(c1c(C)cccc1C)S(C)(=O)=O	20

(next part)
Structure	NOMO-1 viab
C[C@@H]1CN([C@@H](C)CO)C(=O)Cc2cc(NC(=O)Nc3ccc(C(F)(F)F)cc3)ccc2O[C@@H]1CN(C)S(=O)(=O)c1ccccc1	112*
C[C@@H]1CN([C@H](C)CO)C(=O)Cc2cc(NC(=O)c3ccncc3)ccc2O[C@H]1CN(C)Cc1ccc(C(=O)Nc2ccccc2N)cc1	29
Cn1nnnc1SCCNCc1ccncc1	16
CNC[C@@H]1Oc2ccc(NS(=O)(=O)c3ccc(OC)cc3)cc2C(=O)N([C@H](C)CO)C[C@@H]1C	-2
Cc1cc(Cl)c(S(=O)(=O)N2CC(C)OC(C)C2)cc1OCC(N)=O (stereo unspecified)	15
COC(=O)c1ccc(C(=O)OC)c(NC(=O)c2ccccc2)c1	30
CSc1cccc(N2C(=O)C3CC=C(C)CC3C2=O)c1 (stereo unspecified)	-9
Cc1ccc(S(=O)(=O)Nc2cccc3c2O[C@H](CN(C)S(=O)(=O)c2ccc(C)cc2)[C@@H](C)CN([C@H](C)CO)C3=O)cc1	8
NC(=O)CSc1oc(-c2ccc(F)cc2)nc1S(=O)(=O)c1ccc(Br)cc1	-30
C[C@@H]1CN([C@H](C)CO)C(=O)c2cc(NC(=O)Nc3ccc(C(F)(F)F)cc3)ccc2O[C@H]1CN(C)C(=O)Nc1ccc2c(c1)OCO2	19
COc1ccc(NC(=O)N(C)C[C@@H]2Oc3c(NC(=O)Nc4c(C)noc4C)cccc3C(=O)N([C@@H](C)CO)C[C@@H]2C)cc1	-13
CSc1nc2cc(C)nn2c(-c2ccccc2Cl)c1C#N	17

An excerpt of these results, field by field:
Cc1ccc(S(=O)(=O)Nc2cccc3c2O[C@H](CN(C)S(=O)(=O)c2ccc(C)cc2)[C@@H](C)CN([C@H](C)CO)C3=O)cc1
  NOMO-1 viab: 8
NC(=O)CSc1oc(-c2ccc(F)cc2)nc1S(=O)(=O)c1ccc(Br)cc1
  NOMO-1 viab: -30
C[C@@H]1CN([C@H](C)CO)C(=O)c2cc(NC(=O)Nc3ccc(C(F)(F)F)cc3)ccc2O[C@H]1CN(C)C(=O)Nc1ccc2c(c1)OCO2
  NOMO-1 viab: 19

The results go on:
Structure	NOMO-1 viab
C[C@@H]1CN([C@H](C)CO)C(=O)Cc2cc(N(C)C)ccc2O[C@H]1CN(C)Cc1ccc2c(c1)OCO2	13
CCOC(NC(=O)Nc1ccc(Br)cc1)(C(F)(F)F)C(F)(F)F	108*
CC(C)=CCc1c(-c2ccc(O)cc2O)oc2c(CC=C(C)C)c(O)cc(O)c2c1=O	24
C[C@@H]1CCCCO[C@H](CN(C)C(=O)Nc2ccc3c(c2)OCO3)[C@@H](C)CN([C@H](C)CO)C(=O)c2cc(NS(=O)(=O)c3cn(C)cn3)ccc2O1	-2
O=C1C(=O)N(Cc2ccco2)C(c2cccnc2)C1C(=O)c1cc2ccccc2o1 (stereo unspecified)	-17
C[C@H]1CN([C@@H](C)CO)C(=O)Cc2cc(NC(=O)C3CC3)ccc2O[C@@H]1CN(C)Cc1ccc(Cl)c(Cl)c1	13
COC(=O)CSc1ncnc2c1sc1nc3c(cc12)COC(C)(C)C3	23
CNC[C@H]1OCCCC[C@@H](C)Oc2ccc(NC(=O)Nc3cccc4ccccc34)cc2C(=O)N([C@H](C)CO)C[C@@H]1C	-1
CC(=O)N/C(=C\c1ccc2ccccc2c1)C(=O)O	0
C[C@@H]1CN([C@@H](C)CO)C(=O)c2cc(NS(=O)(=O)c3ccc(Cl)cc3)ccc2O[C@@H]1CN(C)Cc1ccccc1	41
Cc1ccc(S(=O)(=O)Nc2cccc3c2O[C@H](CN(C)Cc2ccc(Cl)c(Cl)c2)[C@H](C)CN([C@@H](C)CO)C3=O)cc1	104*
Cc1ccccc1-c1nc(SCC(=O)Nc2sc3c(c2C#N)CCCC3)n[nH]1	-2

Grouped by structure: the entries above with a CF3 group.
Structure	NOMO-1 viab
C[C@@H]1CCCCO[C@@H](CN(C)C(=O)Nc2ccc(C(F)(F)F)cc2)[C@@H](C)CN([C@H](C)CO)C(=O)c2cc(NC(=O)CCC(F)(F)F)ccc2O1	47
C[C@@H]1CN([C@H](C)CO)C(=O)c2cc(NC(=O)CCC(F)(F)F)ccc2O[C@H]1CN(C)Cc1ccccc1	2
C[C@@H]1CN([C@@H](C)CO)C(=O)Cc2cc(NC(=O)Nc3ccc(C(F)(F)F)cc3)ccc2O[C@@H]1CN(C)S(=O)(=O)c1ccccc1	112*
C[C@@H]1CN([C@H](C)CO)C(=O)c2cc(NC(=O)Nc3ccc(C(F)(F)F)cc3)ccc2O[C@H]1CN(C)C(=O)Nc1ccc2c(c1)OCO2	19
CCOC(NC(=O)Nc1ccc(Br)cc1)(C(F)(F)F)C(F)(F)F	108*

Further results follow.
Structure	NOMO-1 viab
Cc1c(CCC(=O)O)c(=O)oc2cc(OCc3ccc(Br)cc3)ccc12	19
COc1ccc(NC(=O)N(C)C[C@H]2Oc3ccc(NC(=O)NC4CCCCC4)cc3C(=O)N([C@@H](C)CO)C[C@H]2C)cc1	22
c1ccc(COc2ccc(Oc3nc(N4CCOCC4)nc(N4CCOCC4)n3)nn2)cc1	-13
CN(C)c1ccc(-c2[nH]c(=S)[nH]c(=O)c2C#N)cc1	13
COc1ccc(NC(=O)CN(c2cc(C)ccc2OC)S(C)(=O)=O)cc1Cl	-16
CC(C)NC(=O)N(C)C[C@@H]1Oc2ccc(NC(=O)CCN3CCOCC3)cc2C(=O)N([C@H](C)CO)C[C@@H]1C	9
C[C@@H]1CN([C@H](C)CO)C(=O)c2cccc(NS(=O)(=O)c3cccs3)c2O[C@@H]1CN(C)C	-5
O=c1c2ccccc2nc(/C=C/c2cc(Br)ccc2O)n1CCCO	108*

Assay outcomes from PubChem BioAssay.
